Screens from PubChem.
Ran FRET: inhibitors of Ran–importin-beta complex formation, primary screen, biochemical, CFP-Ran/YFP-importin-beta FRET, RCC1, cell-free (AID 434961) | Regulator of chromosome condensation (Homo sapiens) + GTP-binding nuclear protein Ran … | CFP-Ran/YFP-importin-beta FRET, cell-free; hits give high values | inhibition, % | 7,700 compounds, 0.2% hits;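 active = more than half of the replicate wells above 15% inhibition; inconclusive = exactly half above it; inactive = fewer than half above it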;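 note: 0% = DMSO wells and 100% inhibition = RanGDP control wells on each plate; stock of unstated strength diluted about 400-fold; mean of two wells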
The depositor's hits bear a star; ? = inconclusive.

SMILES	Ran FRET
C[C@H]1CN([C@@H](C)CO)C(=O)c2cccc(NS(=O)(=O)c3ccc(Cl)cc3)c2O[C@H]1CN(C)C(=O)Nc1ccc(F)cc1	-0.1
C[C@H]1CN([C@@H](C)CO)C(=O)c2cc(NC(=O)CCCN(C)C)ccc2O[C@@H]1CN(C)S(=O)(=O)c1cccs1	6.1
C[C@@H]1CN([C@H](C)CO)C(=O)c2cc(NS(=O)(=O)c3cn(C)cn3)ccc2O[C@@H]1CN(C)C	1.3
C[C@@H]1CN([C@@H](C)CO)C(=O)CCCn2cc(nn2)CO[C@H]1CN(C)C(=O)Nc1ccc(C(C)(C)C)cc1	-1.7
C[C@@H]1CN([C@@H](C)CO)C(=O)c2cccc(NS(C)(=O)=O)c2O[C@@H]1CN(C)Cc1ccccc1	-2.5
C[C@@H]1CN([C@@H](C)CO)C(=O)c2cccc(NS(=O)(=O)c3cccs3)c2O[C@H]1CN(C)C(=O)NC1CCCCC1	-3.2
C[C@H]1CN([C@@H](C)CO)C(=O)c2cccc(NS(=O)(=O)c3cn(C)cn3)c2O[C@H]1CN(C)C(=O)NC1CCCCC1	-0.3
C[C@H](CO)N1C[C@H](C)[C@H](CN(C)Cc2ccc(C(=O)O)cc2)Oc2ccc(NC(=O)NC3CCCCC3)cc2CC1=O	1.3
C[C@@H]1CN([C@@H](C)CO)C(=O)c2cccc(NC(=O)C3CCOCC3)c2O[C@@H]1CN(C)Cc1ccc(C(F)(F)F)cc1	-4.9
COc1ccc(S(=O)(=O)Nc2ccc3c(c2)C(=O)N([C@H](C)CO)C[C@H](C)[C@@H](CN(C)Cc2ccc4c(c2)OCO4)O3)cc1	0.3
C[C@@H]1CCCCO[C@@H](CN(C)C(=O)Cc2ccccc2)[C@H](C)CN([C@@H](C)CO)C(=O)c2cc(NC(=O)Nc3ccc(F)cc3)ccc2O1	3.1
C[C@H]1CN([C@@H](C)CO)C(=O)c2cc(NC(=O)Cn3cnnn3)ccc2O[C@@H]1CN(C)S(=O)(=O)c1cccs1	8.1
C[C@@H]1CN([C@H](C)CO)C(=O)c2cc(NC(=O)C3CC3)ccc2O[C@@H]1CN(C)S(=O)(=O)c1cccs1	-5.1
COc1ccc(CN(C)C[C@@H]2Oc3ccc(NC(=O)CCC(F)(F)F)cc3C(=O)N([C@@H](C)CO)C[C@H]2C)cc1	-2.3
C[C@@H]1CN([C@H](C)CO)C(=O)CCCn2cc(nn2)CO[C@H]1CN(C)C(=O)Cc1ccccc1	-2.1
COc1ccc(S(=O)(=O)Nc2cccc3c2O[C@H](CN(C)S(=O)(=O)c2ccc(F)cc2)[C@@H](C)CN([C@H](C)CO)C3=O)cc1	-4.7
CNC[C@H]1Oc2c(NS(=O)(=O)c3cn(C)cn3)cccc2C(=O)N([C@H](C)CO)C[C@H]1C	-0.8
C[C@@H]1CN([C@@H](C)CO)C(=O)c2cc(NC(=O)c3ccncc3)ccc2O[C@@H](C)CCCCO[C@H]1CN(C)C(=O)Cc1ccccc1	-2.2
COc1ccc(S(=O)(=O)N(C)C[C@@H]2Oc3ccc(NC(=O)Cc4cn(C)c5ccccc45)cc3C(=O)N([C@@H](C)CO)C[C@H]2C)cc1	3.4
C[C@@H]1CN([C@H](C)CO)C(=O)c2cc(NS(=O)(=O)c3cccs3)ccc2O[C@H]1CN(C)C	4.8
C[C@@H]1CN([C@H](C)CO)C(=O)c2cccc(NS(C)(=O)=O)c2O[C@@H]1CN(C)S(=O)(=O)c1ccc(Cl)cc1	-0.3
C[C@H](CO)N1C[C@H](C)[C@H](CN(C)S(=O)(=O)c2cccs2)Oc2ccc(N(C)C)cc2CC1=O	?
Cc1ccc(S(=O)(=O)N(C)C[C@@H]2Oc3ccc(NC(=O)C4CC4)cc3CC(=O)N([C@H](C)CO)C[C@@H]2C)cc1	-0.9
CC(C)NC(=O)N(C)C[C@H]1OCCCC[C@@H](C)Oc2ccc(N(C)C)cc2C(=O)N([C@@H](C)CO)C[C@H]1C	2.7
C[C@H](CO)N1C[C@H](C)[C@H](CN(C)C(=O)Nc2ccc(F)cc2)Oc2ccc(NS(=O)(=O)c3cn(C)cn3)cc2C1=O	5.9
C[C@@H]1CN([C@H](C)CO)C(=O)CCCn2cc(nn2)CO[C@@H]1CN(C)S(=O)(=O)c1ccccc1	2.4
COc1ccc(S(=O)(=O)Nc2cccc3c2O[C@H](CN(C)S(=O)(=O)c2ccc(F)cc2)[C@H](C)CN([C@H](C)CO)C3=O)cc1	-1.0
Cc1noc(C)c1NC(=O)N(C)C[C@H]1Oc2ccc(NC(=O)NC(C)C)cc2CC(=O)N([C@H](C)CO)C[C@H]1C	-2.0
CC(C)NC(=O)N(C)C[C@@H]1OCCCC[C@H](C)Oc2ccc(NS(C)(=O)=O)cc2C(=O)N([C@@H](C)CO)C[C@H]1C	5.0
CC(C)NC(=O)N(C)C[C@@H]1OCCCC[C@H](C)Oc2ccc(NS(=O)(=O)c3cccs3)cc2C(=O)N([C@@H](C)CO)C[C@@H]1C	-2.9
C[C@H](CO)N1C[C@H](C)[C@@H](CN(C)CC2CC2)Oc2ccc(NC(=O)Nc3ccc(C(F)(F)F)cc3)cc2CC1=O	-8.0
C[C@@H]1CCCCO[C@H](CN(C)C(=O)c2ccncc2)[C@@H](C)CN([C@@H](C)CO)C(=O)c2cc(NC(=O)Cc3ccccc3)ccc2O1	7.3
COc1ccc(CN(C)C[C@@H]2Oc3c(NC(=O)Nc4ccc(OC)cc4)cccc3C(=O)N([C@@H](C)CO)C[C@@H]2C)cc1	3.2
C[C@@H]1CN([C@@H](C)CO)C(=O)c2cccc(NC(=O)c3cnccn3)c2O[C@@H]1CN(C)S(=O)(=O)c1cn(C)cn1	3.6
C[C@@H]1CN([C@@H](C)CO)C(=O)Cc2cc(NC(=O)NC3CCCCC3)ccc2O[C@H]1CN(C)Cc1ccc(C(=O)O)cc1	0.4
C[C@H]1CN([C@@H](C)CO)C(=O)c2cc(NC(=O)CCN3CCOCC3)ccc2O[C@@H]1CN(C)C	-3.1
C[C@H]1CN([C@@H](C)CO)C(=O)Cc2cc(NC(=O)C3CC3)ccc2O[C@@H]1CN(C)Cc1ccncc1	-0.8
C[C@@H]1CN([C@H](C)CO)C(=O)Cc2cc(NC(=O)Nc3cccc4ccccc34)ccc2O[C@@H]1CN(C)CC1CC1	-0.2
COc1ccc(S(=O)(=O)N(C)C[C@H]2Oc3c(NC(=O)Nc4cccc5ccccc45)cccc3C(=O)N([C@H](C)CO)C[C@@H]2C)cc1	-3.2
C[C@H]1CN([C@@H](C)CO)C(=O)c2cc(NC(=O)Nc3cccc4ccccc34)ccc2O[C@H]1CN(C)C	2.8
C[C@@H]1CN([C@@H](C)CO)C(=O)Cc2cc(NC(=O)Cc3cn(C)c4ccccc34)ccc2O[C@H]1CN(C)C(=O)Nc1ccccc1	1.6
C[C@@H]1CCCCO[C@@H](CN(C)Cc2ccncc2)[C@H](C)CN([C@@H](C)CO)C(=O)c2cc(NS(C)(=O)=O)ccc2O1	-2.5
C[C@H](CO)N1C[C@H](C)[C@@H](CN(C)C(=O)Nc2ccccc2)OCCCC[C@H](C)Oc2ccc(NC(=O)CCCN(C)C)cc2C1=O	5.2
C[C@H](CO)N1C[C@H](C)[C@@H](CN(C)C(=O)Nc2ccc(F)cc2)Oc2c(NC(=O)Nc3ccc(C(F)(F)F)cc3)cccc2C1=O	1.0
C[C@H](CO)N1C[C@H](C)[C@H](CN(C)Cc2ccncc2)Oc2c(NS(C)(=O)=O)cccc2C1=O	4.8
C[C@@H]1CN([C@@H](C)CO)C(=O)c2cccc(NC(=O)c3ccc(-c4nccs4)cc3)c2O[C@H]1CN(C)C(=O)Nc1ccc(F)cc1	5.0
C[C@H](CO)N1C[C@H](C)[C@H](CN(C)Cc2ccc(Cl)c(Cl)c2)Oc2ccc(N(C)C)cc2CC1=O	1.8
COc1ccc(CN(C)C[C@@H]2Oc3ccc(NC(=O)c4ccncc4)cc3CC(=O)N([C@H](C)CO)C[C@H]2C)cc1	-0.5
COc1ccc(S(=O)(=O)N(C)C[C@H]2Oc3ccc(NC(=O)Cc4cn(C)c5ccccc45)cc3CC(=O)N([C@H](C)CO)C[C@H]2C)cc1	4.0
C[C@H](CO)N1C[C@H](C)[C@H](CN(C)C(=O)CCC(F)(F)F)OCCCC[C@H](C)Oc2ccc(NC(=O)CCC(F)(F)F)cc2C1=O	3.8

C[C@H](CO)N1C[C@H](C)[C@H](CN(C)C(=O)NC2CCCCC2)Oc2ccc(NC(=O)Nc3ccc(C(F)(F)F)cc3)cc2C1=O
  Ran FRET: 4.3
C[C@@H]1CN([C@@H](C)CO)C(=O)CCCn2cc(nn2)CO[C@@H]1CN(C)Cc1cccc2c1OCCCO2
  Ran FRET: -3.4
C[C@@H]1CN([C@@H](C)CO)C(=O)Cc2cc(NC(=O)Nc3cccc4ccccc34)ccc2O[C@H]1CN(C)C(=O)Nc1cccc2ccccc12
  Ran FRET: -1.7
C[C@H]1CN([C@@H](C)CO)C(=O)c2cccc(NS(=O)(=O)c3ccc(Cl)cc3)c2O[C@@H]1CN(C)C
  Ran FRET: 3.4
Cc1noc(C)c1NC(=O)N(C)C[C@@H]1Oc2ccc(NC(=O)Cn3cnnn3)cc2C(=O)N([C@H](C)CO)C[C@@H]1C
  Ran FRET: -2.3
C[C@H]1CN([C@@H](C)CO)C(=O)c2cc(NC(=O)NC3CCCCC3)ccc2O[C@@H]1CN(C)C
  Ran FRET: -7.0
C[C@H]1CN([C@@H](C)CO)C(=O)Cc2cc(NC(=O)Cc3ccccc3)ccc2O[C@@H]1CN(C)C(=O)Nc1ccc2c(c1)OCO2
  Ran FRET: -2.8
CC(C)NC(=O)N(C)C[C@H]1OCCCC[C@H](C)Oc2ccc(NS(=O)(=O)c3cn(C)cn3)cc2C(=O)N([C@@H](C)CO)C[C@H]1C
  Ran FRET: 1.8
COc1ccc(S(=O)(=O)N(C)C[C@@H]2Oc3ccc(NS(=O)(=O)c4cn(C)cn4)cc3CC(=O)N([C@H](C)CO)C[C@@H]2C)cc1
  Ran FRET: 1.2
C[C@@H]1CN([C@H](C)CO)C(=O)c2cccc(NS(C)(=O)=O)c2O[C@H]1CN(C)Cc1ccc2c(c1)OCO2
  Ran FRET: 3.2
C[C@@H]1CN([C@@H](C)CO)C(=O)Cc2cc(NC(=O)Cc3ccccc3)ccc2O[C@@H]1CN(C)C
  Ran FRET: -3.4
COc1ccc(CN(C)C[C@H]2Oc3ccc(NC(=O)Nc4ccc(F)cc4)cc3C(=O)N([C@@H](C)CO)C[C@@H]2C)cc1
  Ran FRET: 2.6
C[C@H]1CN([C@@H](C)CO)C(=O)CCCn2cc(nn2)CO[C@@H]1CN(C)Cc1ccc(O)cc1
  Ran FRET: 4.0
C[C@@H]1CCCCO[C@H](CN(C)C(=O)Nc2ccccc2)[C@H](C)CN([C@@H](C)CO)C(=O)c2cc(NC(=O)Nc3ccccc3)ccc2O1
  Ran FRET: 4.0
COc1ccc(NC(=O)Nc2cccc3c2O[C@@H](CN(C)S(=O)(=O)c2cccs2)[C@@H](C)CN([C@H](C)CO)C3=O)cc1
  Ran FRET: 1.2

C[C@@H]1CCCCO[C@H](CN(C)C(=O)Nc2ccccc2)[C@@H](C)CN([C@H](C)CO)C(=O)c2cc(NC(=O)Cc3ccccc3)ccc2O1
  Ran FRET: 0.5
C[C@H](CO)N1C[C@H](C)[C@@H](CN(C)C(=O)NC2CCCCC2)Oc2ccc(NC(=O)Cc3ccccc3)cc2CC1=O
  Ran FRET: -6.3
C[C@H](CO)N1C[C@H](C)[C@H](CN(C)C(=O)Nc2ccccc2)Oc2ccc(NC(=O)C3CC3)cc2CC1=O
  Ran FRET: 5.2
C[C@H](CO)N1C[C@H](C)[C@H](CN(C)C(=O)c2ccncc2)OCCCC[C@H](C)Oc2ccc(N(C)C)cc2C1=O
  Ran FRET: 4.9
C[C@@H]1CCCCO[C@@H](CN(C)Cc2ccccc2)[C@H](C)CN([C@H](C)CO)C(=O)c2cc(NC(=O)CCC(F)(F)F)ccc2O1
  Ran FRET: 1.1
C[C@@H]1CN([C@@H](C)CO)C(=O)c2cc(NC(=O)CCC(F)(F)F)ccc2O[C@H]1CN(C)C(=O)Nc1ccc2c(c1)OCO2
  Ran FRET: -3.2
C[C@@H]1CN([C@H](C)CO)C(=O)c2cc(NC(=O)CCCN(C)C)ccc2O[C@@H](C)CCCCO[C@H]1CN(C)Cc1ccc2c(c1)OCO2
  Ran FRET: 0.9
C[C@H]1CN([C@@H](C)CO)C(=O)Cc2cc(NC(=O)Cc3ccccc3)ccc2O[C@@H]1CN(C)Cc1ccc(C(F)(F)F)cc1
  Ran FRET: 0.5
C[C@@H]1CN([C@H](C)CO)C(=O)c2cc(NS(=O)(=O)c3ccccc3)ccc2O[C@@H](C)CCCCO[C@H]1CN(C)Cc1ccccc1
  Ran FRET: -1.7
COc1ccc(CN(C)C[C@H]2Oc3ccc(NS(=O)(=O)c4ccc(Cl)cc4)cc3CC(=O)N([C@@H](C)CO)C[C@@H]2C)cc1
  Ran FRET: 1.8

The list is partial. The share of hits here may be higher or lower than overall.
